Tg IFNy HTS: T. gondii growth inhibition with IFN-gamma, primary screen, cell-based; Toxoplasma gondii growth in IFN-gamma-treated host cells; hits give low values; reference of the scale not given here; activity change, negative = inhibition, %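 (about 20 µM by stock and volumes)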; 69,000 compounds, 3.8% hits; AID 1259416, 2018;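 active means below -70%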;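 further: host cells are HeLa cells infected with Toxoplasma gondii; parasite growth read as luciferase light; one replicate is shown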
* = called active by the depositor; i = inactive; & = joins results of further samples; ! = a repeat was not active.

SMILES	Tg IFNy HTS
CCN1CCC2(CC1)OC(=O)C(C)=C2C(=O)NCc1ccc2c(c1)OCO2	28
Cc1ccc2[nH]cc(-c3cncc(C(=O)O)c3)c2c1	7
COc1ccc(-c2ncnc3c2c(C(=O)NCC(F)(F)F)c2ccccn23)cc1	90
Cc1nc2cc(C(=O)N3CCC(c4ccccc4)C3)ccc2n1C (stereo not given)	54
CC(C)Cc1ncc2c(n1)CN(C(=O)c1cnc3c(c1)ncn3C)C2	-7
Cn1c(C(=O)NCC(F)(F)F)nc2c1CCN(c1ncccn1)C2	-5
O=C(C[C@@H]1CC[C@@H]2NC[C@@H](O)COC[C@H]2O1)NCc1ccc2c(c1)OCO2	10
CCn1cc2c(n1)C(COC)CN(S(=O)(=O)c1ccccc1)C2 (stereo not given)	-12
C1CN(c2nc3nonc3nc2N2CCOCC2)CCO1	-70
CO[C@H]1CN(C)C(=O)c2ccc(NS(C)(=O)=O)cc2OC[C@@H](C)N(C(=O)CN(C)C)C[C@H]1C	-48
CNC[C@@H]1Oc2ccc(NC(=O)CCC(F)(F)F)cc2C(=O)N([C@@H](C)CO)C[C@@H]1C	12
COc1ccccc1-c1ccc(C2[C@@H]3CN(C(=O)c4ccncc4)C[C@H]2N3)cc1 (stereo not given in full)	-17&-34
CC(=O)N1CCC[C@H]1C(=O)N1CCC(Cc2cccc(C(=O)O)c2)CC1	0
COc1ccc(C(CC(=O)c2ccc3ccccc3c2)C(=O)c2ccc(F)cc2)cc1 (stereo not given)	-56
O=C(Cc1ccc(Cl)cc1)N1CC2(CCN(Cc3ccccc3)CC2)C1	-4
CCOc1ccccc1N(Cc1nc(-c2ccc(C)cc2)oc1C)S(=O)(=O)c1ccccc1	-49
Cc1ccc(CN2CCC3(CCOCC3COc3cnccn3)CC2)o1 (stereo not given)	1
C[C@H](N)C(=O)N[C@@H](CCC(N)=O)C(=O)O	27
Cn1cc(C2COC3(CCCN(C(=O)c4ccccc4F)C3)C2)cn1 (stereo not given)	-3
CCS(=O)(=O)N1CCC2(CC1)OC(=O)C(C)=C2C(=O)Nc1ccccc1OC	19
CN1Cc2ccccc2CC2(CCN(Cc3ccco3)CC2)C1=O	5
Cc1cccc(Nc2nc(C(=O)Nc3ccccc3C(F)(F)F)nc3ccccc23)c1	-5
O=C(NCc1ccc(Oc2ccccc2)cc1)c1nc(-c2cc(Br)c(O)c(Br)c2)no1	7
O=C(O)CCCNC(=O)c1ccc2c(c1)OCCO2	-32
CSc1c(-c2ccccn2)c(N)nn1C(=O)c1cccs1	i
CCS(=O)(=O)N1CCCC2(CCCN2C(=O)CCc2ccccc2)C1 (stereo not given)	-1
CN(C(=O)c1cccs1)c1ccccc1C(=O)N[C@@H]1C[C@@H](CO)N(C)C1	-7
Cc1cccc(Cn2c(CN)n[nH]c2=O)c1	-6
COc1ccc(Cl)cc1NC(=O)Nc1ccc(-c2nc(-c3ccccc3)co2)cc1	1
Cc1ccccc1-c1ccc([C@H]2[C@H](CO)N3CCCCN(S(=O)(=O)Cc4ccccc4)C[C@@H]23)cc1	-47
COc1cc(OC)cc(C(=O)N2CCCC3(C2)Nc2cccnc2NC3=NC2CCCC2)c1 (stereo not given)	-53
CC(CC(=O)N1C[C@@H](c2ccccc2)[C@H]2[C@H]1CCCCCN2C)n1ccnc1 (stereo not given in full)	-9
CN(Cc1cccnc1)C1CCN(C(=O)c2ccoc2)C(C(=O)O)C1 (stereo not given)	-7
O=C1CC(c2ccc(-n3cncn3)cc2)c2cnn(Cc3ccncc3)c2N1 (stereo not given)	-1
CCN1C(=O)CCc2cc(NC(=O)c3ccc(F)cc3Cl)ccc21	52
CC(C)c1nccc(CN2CCC(CNS(C)(=O)=O)C2)n1 (stereo not given)	28
COCCNC(=O)C1CCCN(C2CCN(Cc3nccn3C)CC2)C1 (stereo not given)	-5
CCN(C(=O)c1ccc2c(C)cc(C)c(O)c2n1)C(C)CO (stereo not given)	0
CCOc1ccc(CC(=O)N2CCC(c3ncc(C(=O)N4CCCC4)c(C)n3)CC2)cc1	-7
O=C(NCCc1ccccc1)c1ccccc1Cl	248
CC(C(=O)N1CCC2(CCCO2)CC1)n1cnc2ccccc21 (stereo not given)	9
COc1cccc(NC(=O)c2cncc(NS(=O)(=O)c3ccc(C)cc3C)c2)c1	18
Cc1nc(C)c(C(=O)N2CCC(C(=O)N3CCCCCC3)C2)o1 (stereo not given)	-11
O=C(Nc1cccnc1)c1sc2cc(Cl)ccc2c1Cl	-10
COc1ccc(OCCNC(=O)c2cccs2)cc1	2
COc1ccc2c3c([nH]c2c1)[C@H](CO)N(C(=O)c1ccc(F)cc1)CC31CCN(Cc2cccnc2)CC1	27
CN(Cc1cccnc1)C1CCN(C(=O)c2ccccn2)C(C(=O)O)C1 (stereo not given)	-74*
O=C(C[C@H]1CC[C@@H]2[C@H](COC[C@@H](O)CN2C(=O)c2ccncc2)O1)Nc1ccc(-c2ccccc2)cc1	-39
Cc1cnccc1CN(C)C(=O)c1cn(Cc2ccc(Cl)cc2)nn1	-3
FC(F)(F)c1cc(CO[C@H]2CCCN[C@H]2c2ccccc2)cc(C(F)(F)F)c1	-81*!
Later entries:
SMILES	Tg IFNy HTS
CN(C)CCN1[C@@H]2CCN(C(=O)CC3CC3)CC[C@@H]2Oc2ccccc2S1(=O)=O	9
CCOC(=O)Nc1nc2ccccc2[nH]1	22&37
Clc1ccc2c(c1)c1ccccc1n2CN1CCOCC1	12
Cn1c(=O)n(C)c2cc(Cn3cc(C4CC=CCC4)nn3)ccc21 (stereo not given)	-6
CS(=O)(=O)N1CCC2(CC1)CC(OCc1cccnc1)CO2 (stereo not given)	-50
O=c1cc(C2CCCN(Cc3cc4n(n3)CCCNC4)C2)nc[nH]1 (stereo not given)	9
Cc1noc(C)c1NC(=O)NC1CCCc2ccccc21 (stereo not given)	51
C[C@@H]1CN([C@H](C)CO)C(=O)CCCn2nncc2CO[C@@H]1CN(C)C(=O)c1ccc2ccn(C)c2c1	-7
CC(C)c1cc(C(=O)N(C)Cc2n[nH]c3c2CCCCC3)nc2ncnn12	2
COCCC(=O)c1nc2c(s1)CCCN2Cc1ccccc1	5
Cc1ccc(-c2nc(NC(=O)c3cncc(-c4cccs4)c3)sc2C)cc1Cl	-21
COc1ccc(C(=O)N2CCC(C)(C(=O)NCc3cc(OC)cc(OC)c3)CC2)cc1	22
C[C@@H]1CN([C@@H](C)CO)C(=O)c2ccccc2-c2ccccc2CO[C@@H]1CN(C)S(=O)(=O)c1ccc([N+](=O)[O-])cc1	34
COC(=O)[C@@H]1C[C@@H](NC(=O)CN2CCCCCCC2)CN1C	-2
Cc1cc(S(=O)(=O)N2CCC(c3nc(C(=O)N4CCCC4)c(C)o3)CC2)ccc1F	24
CC(C)COc1ccc(-c2noc(-c3c(O)c4ccc(F)cc4n(C)c3=O)n2)cc1	74
COc1cc(OC)c(S(=O)(=O)NCc2noc(C)n2)cc1Cl	8
COc1ccc(NC(=O)CN2C(=O)CCc3cc(S(=O)(=O)N4CCOCC4)ccc32)cc1OC	5
COC(=O)c1c(C)nn(-c2ccccc2)c1-c1cc(C)on1	-1
Cc1c(C(=O)Nc2ccccc2)nn(-c2ccc(C(C)(C)C)cc2)c(=N)c1C#N	-5
COc1cc(CNC2CCCC2)cc(Br)c1OCc1cccnc1	54
O=C(O)C(Cc1ccco1)n1ccnc1-c1cccnc1 (stereo not given)	-47
c1coc(CN2CCc3ncnc(C4CC4)c3CC2)c1	32
CN(C)C(=O)N1CCN(c2ccc3ccc(C(=O)NCc4cccs4)cn23)CC1	77
O=C(c1ccncc1)N1CCC2(CC1)CC(Nc1ncccn1)C2	-3
CN(C)CCN1C[C@H]2CN(Cc3cccs3)C[C@H]2C1=O	-1
CCc1ccc(C(=O)N2CCCn3nnc(CN4CCOCC4)c3C2)cc1	1
O=C(c1cc2c(s1)CCCCC2)N1Cc2cnn(CCO)c2C1	-40
O=C(c1c(O)c2ccc(Cl)cc2[nH]c1=O)C1CC1	4&20
O=C(c1ccoc1)N1CC[C@H](OCC2CC2)[C@@H](Cc2ccccc2)C1	-12

As a short view, some entries already given:
SMILES	Tg IFNy HTS
CCN1CCC2(CC1)OC(=O)C(C)=C2C(=O)NCc1ccc2c(c1)OCO2	28
Cc1ccc2[nH]cc(-c3cncc(C(=O)O)c3)c2c1	7
COc1ccc(-c2ncnc3c2c(C(=O)NCC(F)(F)F)c2ccccn23)cc1	90
Cc1nc2cc(C(=O)N3CCC(c4ccccc4)C3)ccc2n1C (stereo not given)	54
CC(C)Cc1ncc2c(n1)CN(C(=O)c1cnc3c(c1)ncn3C)C2	-7
Cn1c(C(=O)NCC(F)(F)F)nc2c1CCN(c1ncccn1)C2	-5
O=C(C[C@@H]1CC[C@@H]2NC[C@@H](O)COC[C@H]2O1)NCc1ccc2c(c1)OCO2	10
CCn1cc2c(n1)C(COC)CN(S(=O)(=O)c1ccccc1)C2 (stereo not given)	-12
C1CN(c2nc3nonc3nc2N2CCOCC2)CCO1	-70
CO[C@H]1CN(C)C(=O)c2ccc(NS(C)(=O)=O)cc2OC[C@@H](C)N(C(=O)CN(C)C)C[C@H]1C	-48
CNC[C@@H]1Oc2ccc(NC(=O)CCC(F)(F)F)cc2C(=O)N([C@@H](C)CO)C[C@@H]1C	12
COc1ccccc1-c1ccc(C2[C@@H]3CN(C(=O)c4ccncc4)C[C@H]2N3)cc1 (stereo not given in full)	-17&-34
CC(=O)N1CCC[C@H]1C(=O)N1CCC(Cc2cccc(C(=O)O)c2)CC1	0
COc1ccc(C(CC(=O)c2ccc3ccccc3c2)C(=O)c2ccc(F)cc2)cc1 (stereo not given)	-56
O=C(Cc1ccc(Cl)cc1)N1CC2(CCN(Cc3ccccc3)CC2)C1	-4
CCOc1ccccc1N(Cc1nc(-c2ccc(C)cc2)oc1C)S(=O)(=O)c1ccccc1	-49
Cc1ccc(CN2CCC3(CCOCC3COc3cnccn3)CC2)o1 (stereo not given)	1
C[C@H](N)C(=O)N[C@@H](CCC(N)=O)C(=O)O	27
Cn1cc(C2COC3(CCCN(C(=O)c4ccccc4F)C3)C2)cn1 (stereo not given)	-3
CCS(=O)(=O)N1CCC2(CC1)OC(=O)C(C)=C2C(=O)Nc1ccccc1OC	19
CN1Cc2ccccc2CC2(CCN(Cc3ccco3)CC2)C1=O	5

Remaining list, next part
SMILES	Tg IFNy HTS
CCc1cccc(NC(=O)c2cncc(NS(=O)(=O)c3ccc(C)cc3C)c2)c1	14
Cc1c(-c2ccccc2)[nH]c2c(CNc3nccc(N)n3)cc(Cl)cc12	-37
CC(C)CN1C[C@@H]2CCN(C(=O)c3cn(C)c4ccccc34)CC[C@H]2S1(=O)=O	11
Cc1cc(=O)c(C(=O)N2CCCC(N(C)Cc3ccccc3)C2)c[nH]1 (stereo not given)	4
Cc1ccc(-c2nc(CCNC(=O)C(=O)Nc3cc(C)cc(C)c3)cs2)cc1	2
Cc1ncnc(N2CCN(C(=O)C3CC4(CCNCC4)CN3)CC2)c1C (stereo not given)	285
Cc1ccc(-c2nc(C)c(CCNC(=O)C(=O)Nc3ccccc3)s2)cc1	-24
CCc1ccccc1S(=O)(=O)N1CCC2(CC1)Nc1ccccc1-n1cccc12	20
Cc1ccc(C(=O)N2CCCn3nnc(Cn4ccnc4)c3C2)cc1C	3
CC(C)OC(=O)CC1C(=O)NCCN1C(=S)NC(=O)c1cccs1 (stereo not given)	21
CSc1ncc(C(=O)Nc2cccc(C(=O)N3CCCCC3)c2)cn1	13
CN(C)CC(=O)N1C[C@@H]2Cc3c(c(-c4ccccc4)nn3C)[C@H]2C1	8
Cc1cc(C)cc(NC(=O)NCC(c2cccnc2)c2cn(C)c3ccccc23)c1 (stereo not given)	i
CCOc1ccc(CC(=O)NCCc2csc(-c3ccc(F)cc3)n2)cc1	1
COc1ccc(-n2ccnc2CN2CCc3nc(C)n(C)c(=O)c3CC2)cc1	0
Cc1cc(-c2csc(NC(=O)c3cnc4sc(C)cn4c3=O)n2)c(C)s1	-2
Cc1ccc(-c2nc(NC(=O)Nc3c(-c4ccccc4)noc3C)sc2C)cc1Cl	-66
CN(C)CC(=O)N1CCC2(CCC(COCC3CC3)N2C)CC1 (stereo not given)	-1
COC(=O)c1cc2n(n1)CCN(C(=O)c1cc3cc(OC)ccc3[nH]1)C2	6
O=C(c1cccs1)N1CC[C@H](O)[C@@H]1Cc1ccccc1	-6
CN(C)CCOCc1cncc2c1CCN(C(=O)c1cccs1)C2	1
Cc1ccc2c(c1)CN1CN2Cc2cc(C)ccc21	13
Cc1nn(C)c(Cl)c1-c1c(-c2ccccc2)ncn1C[C@H]1CCCN1	-13
CO[C@@H]1CN(C)C(=O)c2ccc(NS(C)(=O)=O)cc2OC[C@@H](C)N(C(=O)CN(C)C)C[C@@H]1C	20
Cc1cccc(COC[C@@H]2CCC3C(CCN3Cc3ccoc3)O2)n1 (stereo not given in full)	13
O=C(NCCn1ccnc1)C1(Oc2ccc(Cl)cc2)CCNCC1	5
O=C(c1cn(C2CCCCC2)nn1)N1CCS(=O)(=O)CC1	-5
COc1cc(N(C)CCc2ccncc2)ncn1	25
CO[C@@H]1CC[C@@H]2CCOc3c(C#N)cccc3C(=O)N(C)C[C@H](c3ccccc3)CC(=O)N(C)C[C@H]1O2	-24
COc1ccc2c3c([nH]c2c1)[C@@H](CO)NCC31CN(S(=O)(=O)c2cccc(C)c2)C1	-17
CO[C@@H]1CN(C)C(=O)c2cc(NC(=O)CC(F)(F)F)ccc2OC[C@H](C)N(CC2CC2)C[C@H]1C	10
CCc1nn(C)c(Cl)c1CN1CCCC1c1ccc(F)cc1 (stereo not given)	12
O=C(O)c1ccc(CNC(=O)c2c(O)c3ccccc3[nH]c2=O)cc1	263
C=C(C)COc1cccc(C(=O)NCCn2cccn2)c1	41
CCOCCn1nc(C)cc1C(=O)N1C[C@@H]2[C@@H]3CC[C@@H](C3)[C@@H]2C1	0
O=C(c1ccco1)N1CCN(C(=O)c2cc3cccnc3n(Cc3ccccc3F)c2=O)CC1	-19
CS(=O)(=O)Nc1ccc2oc3ccccc3c(=O)c2c1	-92*
CCn1ccnc1CN(C)Cc1noc(C)n1	-25
Cc1nnc(-c2ccccc2-c2ccc(-c3ccn[nH]3)cc2)o1	5
Fc1ccccc1-n1nnnc1SCc1cc2c(cc1Cl)OCO2	-2
CC(C)Cc1ccc(S(=O)(=O)N2CCC3(CC2)NCCN=C3NCc2cccc(F)c2)cc1	-52

High-throughput results deposited in PubChem BioAssay by Broad Institute.

Not all compounds are listed; count on the stated rates, not on these rows.
